# Screening results (PubChem BioAssay)
# MT1-MMP act inh: blockers of MT1-MMP proenzyme processing, primary screen, HT1080 RFP-PRO-GFP cells, GFP/RFP fluorescence; GFP/RFP ratio fluorescence, overnight; percent of plate control window, DMSO zero; 0.061% of 360,000 active; GFP/RFP ratio change, % at 20 µM; AID 651647, 2012;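 active means GFP/RFP ratio change of at least 30% with cell ATP level not reduced by more than half and red fluorescence within 50% of control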; further: strong numbers were not always called active
#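 Assay system: HT1080 RFP-PRO-GFP cells. Benchmarks: DMSO vehicle wells and RFP-L50D-GFP reporter cell wells. Times: overnight cell settling, then overnight compound exposure, 37 °C, 5% CO2. Compound: 20 µM single dose, 1% DMSO. Read-out basis: GFP/RFP fluorescence ratio.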
# CSC inhib: cancer stem cell viability inhibitors, primary screen, luminescence. cancer stem cell-like cells viability. inhibition, % at 7.5 µM. 1.1% of 300,000 active. AID 2717, 2010;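 active means mean at 75% or more and at least half the replicates too; inconclusive means mean and replicates disagree; tested in HMLE shEcad cells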;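 further: 0% = median of negative and 100% = median of positive control wells; the first replicate is given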
# Env fusion inh: inhibitors of HIV-1 Env-driven cell-cell fusion, primary screen, HeLa-JRFL effector, CEM21 target cells, luciferase; inhibition, % at 12.3 µM; 1.1% of 360,000 active; AID 651610, 2012;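 active means mean replicate inhibition score of at least 50 and every replicate individually at or above 50; inconclusive means only one of the two criteria met; inactive means mean below 50 and not all replicates reaching 50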;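 further: 0% = plate neutral controls and 100% = maraviroc near 300 nM; one replicate is shown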
# PABP polyA inh: PABP poly(A) RNA binding inhibitors, primary screen, biochemical, fluorescence polarization, uHTS | Polyadenylate-binding protein 1 (Homo sapiens), P11940 | inhibition, % at 35 µM | 1% of 290,000 active;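 active means 50% or more with normal probe brightness, or confirmed in later tests; inconclusive means above 50% with abnormal brightness, or retests that disagree; inactive means below 50% or failed in later tests; about a fifth of its hits are not listed in these tables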;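 further: calls also rest on retests at 20 µM and on dose response follow-up; controls were probe without protein and protein plus probe with vehicle; some compounds called inactive have numbers as strong as hits; many hits fall short of the cut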
# eIF4H inh: human eIF4H binding inhibitors, primary screen, translation initiation inhibitor project, biochemical, uHTS, fluorescence polarization. Eukaryotic translation initiation factor 4H (Homo sapiens), Q15056. eIF4H fluorescence polarization binding assay. inhibition, % at 35 µM. 0.94% of 290,000 active. AID 2012, 2009;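 active means 50% or more with normal probe brightness, or confirmed in later tests; inconclusive means above 50% with abnormal brightness, or retests that disagree; inactive means below 50% or failed in later tests; about a fifth of its hits are not listed in these tables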;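 further: calls also rest on retests at 20 µM and on dose response follow-up; 0% = protein and probe with vehicle and 100% = probe without protein; strong numbers were not always called active; many hits fall short of the cut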
# Rce1 inhib: yeast Rce1p protease inhibitors, primary screen, biochemical, fluorescence, cell-free homogeneous; CAAX prenyl protease 2 (Saccharomyces cerevisiae (strain ATCC 204508 / S288c)), Q03530; yeast membranes, quenched prenylated peptide cleavage fluorescence; calls only; 0.27% of 290,000 active; AID 2563, 2010;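 active means fall in fluorescence gain of 50% or more versus controls, with final raw signal at or below 3038400; inconclusive means same 50% fall but final raw signal above 3038400; inactive means fall in fluorescence gain under 50%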;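 further: plate controls were neutral control wells for no effect and wells lacking membranes for full effect; tested at 10 µM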
# Target sequence (Q03530 whole entry, looked up): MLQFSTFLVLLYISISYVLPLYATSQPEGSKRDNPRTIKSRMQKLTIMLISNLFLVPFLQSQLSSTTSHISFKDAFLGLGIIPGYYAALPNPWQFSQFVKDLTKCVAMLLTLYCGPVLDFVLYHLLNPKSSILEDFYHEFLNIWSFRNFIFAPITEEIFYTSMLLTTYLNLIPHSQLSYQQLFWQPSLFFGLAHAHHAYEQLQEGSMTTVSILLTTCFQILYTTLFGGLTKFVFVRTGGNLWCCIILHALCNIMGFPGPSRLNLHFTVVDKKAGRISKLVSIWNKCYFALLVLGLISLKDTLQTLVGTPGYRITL
# UUG fidelity: modulators of yeast start codon fidelity, primary screen, whole organism, S. cerevisiae, single point, plate reader; activity score, % at 18.7 µM; 0.13% of 350,000 active; S. cerevisiae UUG-firefly luciferase reporter, luminescence/redox ratio; AID 602363, 2012;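 active means replicate mean at a twofold rise or more, about +100% in these data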;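 further: firefly luciferase made from a UUG start codon reports start codon fidelity; reporter light over untreated wells divided by growth signal over untreated wells; some hits fall short of that in this replicate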
# eIF4H inh retest: second read-out of eIF4H inh, no call of its own (marks repeat the call); inhibition, %; compound at 20 µM; confirmation average;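 mean of two retest wells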
# PABP polyA inh retest: further read-out of PABP polyA inh, marked with its call; inhibition, %; compound at 20 µM; confirmation repeats;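 mean of two retest wells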
# MT1-MMP act inh RFP: also measured in MT1-MMP act inh; calls as there; RFP signal change, %; measured here: RFP expression control read;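 0 = vehicle wells; hits needed this value within 50% of zero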
# * marks the source's active call; other numbers are inactive results; i = inactive; ? = inconclusive; · = not tested or not shown; & = joins results of further samples.
SMILES,MT1-MMP act inh,MT1-MMP act inh RFP,CSC inhib,Env fusion inh,PABP polyA inh,eIF4H inh,Rce1 inhib,UUG fidelity,others
COc1cc(C2OC(=O)c3ccccc3S2)cc(OC)c1OC (centres undefined),0.5,0.4,1.0,9.7,16.7,-8.8,i,-2.4,
O=C(COc1ccc(Cl)cc1)NC1=NN(c2ccccc2)C(=O)C1,18.0,1.0,-2.8,·,10.5,-13.0,i,·,
CC(=O)Nc1ccc(NC(=O)CC2(CC(=O)N3CCOCC3)CCCC2)cc1,0.9,0.0,·,-10.2,·,·,·,1.3,
N#Cc1ncc(-c2ccc3c(c2)OCCOCCOCCOCCOCCO3)nc1C#N,1.4,4.2,30.9,-14.8,-2.2,-4.2,i,-10.4,
CC(C)C(N)c1csc(Nc2ccc(C(F)(F)F)cn2)n1 (centres undefined),-3.1,1.2,·,-4.5,·,·,·,-14.1,
CCOc1ccccc1-c1nc(-c2ccc(NC(=O)c3ccc(Br)o3)cc2)no1,·,·,64.2,·,-6.4,-7.4,i,·,
COc1cc(NC(=O)CN2CCN(S(=O)(=O)c3ccc(C(C)C)cc3)CC2)cc(OC)c1,-3.0,-5.2,-1.0,·,-8.1,-15.9,·,-8.1,
COc1cccc(CC2(CO)CCN(Cc3cn(C)nc3C)CC2)c1,-13.8,1.4,1.4,0.8,-4.0,38.6,i,-10.6,
Cc1ccc(NC(=S)NC(=O)C2CCC2)cc1C,-2.6,0.4,-1.6,-80.2,-8.3,-8.6,i,-25.9,
C/C(=N\NC(=O)c1cccnc1)c1ccc(C)c([N+](=O)[O-])c1,2.9,6.7,-3.5,-21.4,-8.6,-3.1,i,·,

# Continued; it opens with the 2 that closed the last part.
SMILES,MT1-MMP act inh,MT1-MMP act inh RFP,CSC inhib,Env fusion inh,PABP polyA inh,eIF4H inh,Rce1 inhib,UUG fidelity,others
Cc1ccc(NC(=S)NC(=O)C2CCC2)cc1C,-2.6,0.4,-1.6,-80.2,-8.3,-8.6,i,-25.9,
C/C(=N\NC(=O)c1cccnc1)c1ccc(C)c([N+](=O)[O-])c1,2.9,6.7,-3.5,-21.4,-8.6,-3.1,i,·,
COc1ccc(Cl)cc1NC(=O)C1CSC(c2ccncc2)=N1 (centres undefined),-3.1,-3.3,·,29.7,-0.4,-8.6,i,-10.8,
CC(=O)Nc1ccc(C(=O)/C=C/c2ccco2)cc1,·,·,15.0,-20.9,3.8*,?,i,-8.7,PABP polyA inh retest=122.4*
O=C(O)CN1C(=O)COc2cc(S(=O)(=O)N3CCCC3)ccc21,0.6,2.0,2.4,19.1,22.1,-3.5,i,-14.2,
CCC(C)NC(=O)C1CC(=O)N(CCc2ccc(F)cc2)C1 (centres undefined),-0.6,0.8,-2.5,-5.0,4.6,-6.4,i,-23.7,
CC(=O)Nc1ccc(NC(=O)Cn2cc3c(n2)CCCC3)cc1,3.3,1.3,-21.1,·,4.0,1.6,i,-23.0,
NC1=NC(c2ccc(Br)cc2)n2c(nc3ccccc32)N1 (centres undefined),9.6&9.3,0.9&0.0,5.8,8.7&2.1,-11.8,-9.4,i,-19.8,
CCOc1ccc(CCNC(=O)COC(=O)Cc2ccc(OC)c(OC)c2)cc1OCC,0.3,3.8,-4.9,-9.2,·,·,i,·,
COc1ccc(C2CC(=O)Oc3c(C(CCN4CCCCC4)c4ccc(N(C)C)cc4)c(OC)cc(OC)c32)cc1 (centres undefined),6.6,3.9,-10.0,0.5,3.0,6.3,i,-3.1,
COc1c(CC=C(C)C)cc(C2CC(=O)c3c(O)cc(O)cc3O2)cc1CC=C(C)C (centres undefined),-13.3,-37.7,100.2*,·,15.4,-6.3,i,-1.5,
COC(=O)c1nn(-c2ccccc2)c(Cl)c1/C=N/O,5.2,1.2,12.0,-23.1,4.3,3.9,i,0.4,
COC(=O)c1ccc(S(=O)(=O)N(C2CCCCC2)C2CCCCC2)n1C,-7.1,-9.7,2.9,19.6,0.7,-15.8,·,·,
CCc1nccn1S(=O)(=O)c1ccc(OC)c(C)c1C,-2.9,-2.4,-4.7,·,4.1,5.6,i,-15.0,
O=C(CNC(=S)N(Cc1ccccc1F)C1CCCCC1)NC1CC1,1.5,-1.6,·,0.0,-0.6,-11.6,i,-15.2,
CCCCSc1cc(=O)[nH]c(N)n1,-3.6,-6.4,13.5,?,6.1,-20.5,i,-19.0,
CCOC(=O)C1CCC(C(=O)OCC)N1c1ccc(C=O)cc1 (centres undefined),0.5,6.4,·,-13.0,·,·,·,-25.4,
CCOc1ccc(NC(=O)CN(C)C(=O)c2cccc(S(=O)(=O)N3CCCC3)c2)cc1OCC,2.6,2.9,·,15.3,·,·,·,-8.8,
CCOC(=O)c1ccc(NC(=O)CSc2ccc(-c3ccccn3)nn2)cc1,4.9,-21.7,2.7,17.9,-1.3,-12.7,i,-33.4,
COC(=O)c1ccc2nc(Nc3nc4c(F)cc(F)cc4s3)sc2c1,-8.0,-10.0,44.8,39.6,8.4,20.6,i,·,
O=C(O)c1ccc(Oc2ccc(C(F)(F)F)cn2)cc1,-0.5,1.1,2.3,-15.8,-14.7,-0.7,i,·,
CN(C)c1cccc(CNC(=O)c2ccc3nc([C@H]4C[C@H](O)[C@@H](CO)O4)[nH]c3c2)c1,-1.6,4.1,·,-16.6,·,·,·,-18.2,
O=C(NCC(=O)N1CCN(c2ccccc2)CC1)c1ccc(Cl)cc1,4.5,-2.3,-2.2,20.4,2.2,-1.8,i,-12.8,
C=CCSc1nc(N)c2c3c(sc2n1)CN(C)CC3,-7.7,-0.3,29.8,-11.5,49.5,31.7,i,-8.3,
COc1ccc(C)cc1S(=O)(=O)N(CC(=O)O)c1ccc(F)cc1,-1.3,-3.0,-8.0,·,-10.8,-10.1,·,10.6,
CC1(C)C(=Cc2ccccc2)C(=O)c2ccccc21,0.0,-3.0,·,-17.3,·,·,·,-13.7,
Cc1nc2cc(C(=O)OCC(=O)NC3CCS(=O)(=O)C3)ccc2n1-c1ccccc1 (centres undefined),3.3,3.1,-14.0,·,6.1,-0.8,i,-3.6,
Cc1ccnc(N=O)c1,-2.0,0.5,·,-8.5,·,·,·,-27.1,
Fc1cccc(NC(=S)NC2CCCCCCC2)c1,2.8,-3.7,2.8,12.7,-1.3,-0.1,i,-30.4,
O=C(Cn1ccc(NC(=O)OCc2ccccc2)nc1=O)NCCCN1CCCC1=O,7.2,5.4,7.5,-16.2,·,·,·,-6.3,
O=C(O)C1CSC(c2ccco2)N1 (centres undefined),-0.8,2.7,-5.0,5.1,-1.3,14.4,i,1.3,
Cc1cccc(NC(=O)CCN2CCN(C)CC2)c1,-0.1,4.4,-9.6,5.6,-2.8,-4.1,i,6.8,
CC1(C)CC(=O)C2=C(C1)N(c1ncn[nH]1)C(N)=C(C#N)C2c1ccccc1 (centres undefined),0.7,5.6,-13.2,1.0,-2.3,1.6,i,·,
CSc1ncccc1C(=O)NCC12CC3CC(CC(C3)C1)C2,-5.3,-4.5,-6.8,11.7,7.9,-7.6,i,·,
CCC(CC)C(=O)Nc1cccc(C(=O)NCCc2ccccc2)c1,-1.0,-2.0,·,-0.7,3.6,-3.8,i,·,
CCOC(=O)CCC(=O)Nc1ncnc2c1C(c1ccccc1)c1c(ccc3ccccc13)O2 (centres undefined),8.2,-6.5,·,-3.5,·,·,·,-4.8,
Cc1ccnc(NS(=O)(=O)c2ccc(NC(=O)c3cncc(Br)c3)cc2)n1,-1.4,1.5,-10.6,·,2.6,-8.9,i,·,
O=C(Nc1ccc(Br)cc1)C1CCCC1,1.9,0.7,7.9,2.2,9.7,0.2,i,-10.1,
O=C(Nc1ccc(Cl)c(Cl)c1)N1CCCCCC1,0.0,-3.1,10.2,-38.1,1.5,1.5,i,-16.3,
CN1CCc2c(sc3nc(SCC(N)=O)n(-c4ccccc4)c(=O)c23)C1,-4.1,-2.5,9.2,·,103.3*,121.8*,i,-19.6,eIF4H inh retest=98.2*;PABP polyA inh retest=81.0*
Cc1cccc(NC(=O)CSc2ccc(-c3cccs3)nn2)c1C,1.3,2.5,·,-1.9,-21.5,-3.3,i,0.2,
COc1cc(CCC(=O)OCC(=O)N(CCC#N)c2ccccc2)cc(OC)c1OC,-1.6,-0.2,·,-0.4,-6.5,10.0,i,-4.7,
COc1cc(/C=C2/SC(=S)N(Cc3ccccc3)C2=O)cc(OC)c1O,-28.8,58.3,66.6,-1.1,-15.1,-3.2,i,-17.4,
COc1ccccc1NC(=O)Cc1noc(CSc2cc(C)c3ccccc3n2)n1,-5.8,-6.6,5.2,23.6,5.9,2.5,i,13.0,
COCCOC(=O)C1=C(C)NC(=O)NC1c1cccs1 (centres undefined),·,·,-15.9,·,5.4,6.5,i,-11.0,
C=CCn1cnnc1SCC(=O)N(C1CCCCC1)C1CCS(=O)(=O)C1 (centres undefined),-0.6,0.7,-9.1,5.2,·,·,·,·,
Cc1ccc2nc(NC(=O)CN3C(=O)C4CC=CCC4C3=O)sc2c1 (centres undefined),6.6,7.9,1.3,-22.8,-3.3,3.1,i,·,
CC1CCCCC1NC(=O)Cn1[nH]c(=O)c2ccccc2c1=O (centres undefined),8.8,-3.3,1.4,-56.4,-6.8,-10.2,i,-7.0,
CCn1c(SCC(=O)NC2CCCC2)nnc1-c1ccco1,-0.6,0.2,·,7.6,4.5,-14.1,i,-23.4,
CCOC(=O)CCSc1n[nH]c(=S)s1,-0.6,0.9,-14.5,-11.7,-6.0,-19.1,i,·,
O=C(COC(=O)CCC(=O)c1ccc(F)cc1)Nc1ccccc1,2.3,4.0,-9.4,5.9,1.0,-5.6,i,·,
Cc1cc(C)nc(N/C(=N\S(=O)(=O)Cc2ccccc2)Nc2cccc(Cl)c2C)n1,4.6,-5.3,15.7,-72.0,2.7,2.8,i,-14.2,

# (continued)
SMILES,MT1-MMP act inh,MT1-MMP act inh RFP,CSC inhib,Env fusion inh,PABP polyA inh,eIF4H inh,Rce1 inhib,UUG fidelity,others
C/C(CC(=O)Nc1ccccc1-c1ccccc1)=N\NC(=O)COc1ccc(C)cc1Br,3.5,2.9,-10.5,·,-5.0,-6.5,i,·,
O=C(CCn1ccc([N+](=O)[O-])n1)NC1CCCCCC1,-1.3,-1.5,-5.8,-16.1,2.4,-0.8,i,·,
COc1cc(NC(=O)c2ccc(NC3=NC4CS(=O)(=O)CC4S3)cc2)cc(OC)c1 (centres undefined),5.0,2.5,-11.1,8.1,-11.6,-10.3,i,-12.1,
CCCSc1nnc(CSc2nc3nc(C)cc(C)n3n2)o1,2.6,1.7,·,18.0,-6.4,2.6,i,-7.1,
C=CCN(C)NC(=O)Nc1ccccc1,10.0,5.9,-18.6,-7.3,0.8,-11.3,i,-14.5,
Cc1cccc(-c2nnc(SCC(=O)Nc3cccc(C(=O)N4CCOCC4)c3)n2C)c1,6.0,2.4,-3.7,14.4,7.5,6.9,i,·,
O=[N+]([O-])c1cc([N+](=O)[O-])c2n[nH]c(-c3ccccc3)c2c1,2.7,-0.1,4.0,-6.3,-4.7,18.3,i,·,
